Vaccinia inh: blocks a specific stage of Vaccinia orthopoxvirus infection, primary screen, cell-based, single point; Vaccinia-infected cells, mCherry/Venus stage reporter fluorescence; active compounds read low; some inactives read as strong as hits; activity change (mCherry), % (no concentration beside the values); 89,000 compounds, 0.01% hits;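 active = mCherry past -33% and 40 or more points under the early reporter, replicates agreeing; inconclusive = past -33% without that gap or agreement; tested in A549 cells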;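 also: scaled between vehicle wells and reference inhibitor wells; 23 nL library stock went into each well; one replicate is shown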
Vaccinia inh Venus: also measured in Vaccinia inh; calls as there; activity change (Venus), %; measured here: Venus reporter, other viral stage;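 negative = less Venus signal; first of two replicates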
The depositor's hits bear a star; & = joins results of further samples.

What do the screens show for `CC(C)COC(=O)N(C)C[C@H]1OCc2cn(nn2)CCCC(=O)N([C@H](C)CO)C[C@@H]1C`?
Vaccinia inh: 12; Vaccinia inh Venus: 15

What do the screens show for `CO[C@H](CN(C)C(=O)c1cc(Cl)cc(Cl)c1)[C@H](C)CN(C(=O)Nc1ccc(F)cc1)[C@H](C)CO`?
Vaccinia inh: 10; Vaccinia inh Venus: 10

How did O=C(Nc1ccc(F)cc1)N1C[C@@H]2N[C@H](C1)C2c1ccc(-c2ccccc2F)cc1 (some centres undefined) do in these assays?
Vaccinia inh: inconclusive; Vaccinia inh Venus: -15

Results for CO[C@H]1CN(C)C(=O)c2ccc(NC(=O)C3CCC3)cc2OC[C@H](C)N(Cc2ccccn2)C[C@@H]1C ?
Vaccinia inh: 11; Vaccinia inh Venus: 11

How did CCS(=O)(=O)NCC[C@@H]1CC[C@@H](NS(=O)(=O)c2ccccc2C)[C@@H](CO)O1 do in these assays?
Vaccinia inh: 0; Vaccinia inh Venus: -1

How did CCCC(=O)Nc1ccc2c(c1)OC[C@@H](C)N(C(=O)c1cnccn1)C[C@H](C)[C@@H](OC)CN(C)C2=O do in these assays?
Vaccinia inh: 5; Vaccinia inh Venus: -1

Results for C[C@@H]1CN([C@H](C)CO)C(=O)c2cc(N(C)C)ccc2O[C@@H](C)CCCCO[C@@H]1CN(C)C(=O)CCC(F)(F)F ?
Vaccinia inh: -11; Vaccinia inh Venus: 8

How did C[C@@H]1CN([C@H](C)CO)C(=O)c2cccc(NC(=O)C3CC3)c2O[C@@H]1CN(C)C(=O)Nc1ccccc1 do in these assays?
Vaccinia inh: 10; Vaccinia inh Venus: 6

Results for C[C@@H]1CN([C@H](C)CO)C(=O)c2cc(N(C)C)ccc2O[C@H]1CN(C)S(=O)(=O)c1cccs1 ?
Vaccinia inh: -21; Vaccinia inh Venus: -18

Results for CCC(=O)N1C[C@@H](C)[C@H](OC)CN(C)C(=O)c2ccc(NC(=O)Nc3cccc(F)c3)cc2OC[C@H]1C ?
Vaccinia inh: -10; Vaccinia inh Venus: -1

What do the screens show for `O=S(=O)(Cc1ccccc1)NCC[C@H]1CC[C@H](NS(=O)(=O)c2ccccc2)[C@@H](CO)O1`?
Vaccinia inh: 4; Vaccinia inh Venus: 3

Results for CCc1cnc(N2[C@H](C#N)[C@H](c3ccc(C#Cc4ccccc4F)cc3)[C@@H]2CO)s1 ?
Vaccinia inh: -10; Vaccinia inh Venus: -8

Results for C[C@H](CO)N1C[C@H](C)[C@@H](CN(C)S(=O)(=O)c2ccccc2)OCc2cn(nn2)CCCC1=O ?
Vaccinia inh: 3&10; Vaccinia inh Venus: 8&12

What do the screens show for `CCCNC(=O)N1[C@H](CO)[C@@H](c2ccccc2)C12CN(C(=O)CC1CC1)C2`?
Vaccinia inh: -1; Vaccinia inh Venus: 0

What do the screens show for `CCCNC(=O)N1C[C@H]2[C@@H](c3ccccc31)[C@@H](CO)N2C(=O)NCCC`?
Vaccinia inh: 22; Vaccinia inh Venus: 9

Results for O=C(C[C@@H]1C[C@H]2c3cc(NC(=O)Nc4ccc(C(F)(F)F)cc4)ccc3O[C@H]2[C@@H](CO)O1)NCC1CC1 ?
Vaccinia inh: 6; Vaccinia inh Venus: 5

What do the screens show for `O=C(NCC[C@H]1CC[C@@H](NC(=O)C2CCOCC2)[C@H](CO)O1)c1cc(Cl)cc(Cl)c1`?
Vaccinia inh: 5; Vaccinia inh Venus: 3

What do the screens show for `Cc1ccccc1-c1ccc([C@@H]2[C@H]3CN(C(=O)Cc4ccccn4)CC(=O)N3[C@H]2CO)cc1`?
Vaccinia inh: 17; Vaccinia inh Venus: -6

Results for O=C(c1ccccc1)N1CC(=O)N2[C@@H](CO)[C@H](c3ccc(C#CCC4CCCC4)cc3)[C@@H]2C1 ?
Vaccinia inh: -30; Vaccinia inh Venus: -22

Results for CN1c2ccc(Br)cc2[C@@H]2[C@@H](CCN2C(=O)c2cccc(F)c2)[C@@H]1CO ?
Vaccinia inh: -18; Vaccinia inh Venus: -13

Molecules listed so far that contain nitrogen in an aromatic ring, in the order listed:
What do the screens show for `CC(C)COC(=O)N(C)C[C@H]1OCc2cn(nn2)CCCC(=O)N([C@H](C)CO)C[C@@H]1C`?
Vaccinia inh: 12; Vaccinia inh Venus: 15

Results for CO[C@H]1CN(C)C(=O)c2ccc(NC(=O)C3CCC3)cc2OC[C@H](C)N(Cc2ccccn2)C[C@@H]1C ?
Vaccinia inh: 11; Vaccinia inh Venus: 11

How did CCCC(=O)Nc1ccc2c(c1)OC[C@@H](C)N(C(=O)c1cnccn1)C[C@H](C)[C@@H](OC)CN(C)C2=O do in these assays?
Vaccinia inh: 5; Vaccinia inh Venus: -1

Results for CCc1cnc(N2[C@H](C#N)[C@H](c3ccc(C#Cc4ccccc4F)cc3)[C@@H]2CO)s1 ?
Vaccinia inh: -10; Vaccinia inh Venus: -8

Results for C[C@H](CO)N1C[C@H](C)[C@@H](CN(C)S(=O)(=O)c2ccccc2)OCc2cn(nn2)CCCC1=O ?
Vaccinia inh: 3&10; Vaccinia inh Venus: 8&12

What do the screens show for `Cc1ccccc1-c1ccc([C@@H]2[C@H]3CN(C(=O)Cc4ccccn4)CC(=O)N3[C@H]2CO)cc1`?
Vaccinia inh: 17; Vaccinia inh Venus: -6

(cont.)
What do the screens show for `COc1ccc(CN(C)C[C@@H]2Oc3ccc(NC(=O)C4CC4)cc3CC(=O)N([C@H](C)CO)C[C@@H]2C)cc1`?
Vaccinia inh: -4; Vaccinia inh Venus: -1

Results for CCCC#Cc1cnc2c(c1)C(=O)N([C@@H](C)CO)C[C@H](C)[C@H](CN(C)C(=O)Nc1c(C)noc1C)O2 ?
Vaccinia inh: 22; Vaccinia inh Venus: 15

Results for COc1cccc(NC(=O)N2C[C@H](O)COC[C@@H]3O[C@@H](CC(=O)NC4Cc5ccccc5C4)CC[C@H]32)c1 ?
Vaccinia inh: 10; Vaccinia inh Venus: 4

What do the screens show for `COc1cccc(C#Cc2cnc3c(c2)C(=O)N([C@H](C)CO)C[C@@H](C)[C@H](CN(C)C(C)=O)O3)c1`?
Vaccinia inh: -8; Vaccinia inh Venus: -1

What do the screens show for `CO[C@H](CN(C)Cc1cc(F)ccc1F)[C@H](C)CN([C@@H](C)CO)S(=O)(=O)c1ccc(F)cc1`?
Vaccinia inh: -2; Vaccinia inh Venus: -9

Results for CCCNC(=O)N(C)C[C@@H]1Oc2cc(C#Cc3ccccn3)ccc2S(=O)(=O)N([C@H](C)CO)C[C@H]1C ?
Vaccinia inh: 0; Vaccinia inh Venus: -4

Results for CO[C@@H]1CN(C)C(=O)c2ccc(NS(=O)(=O)c3ccc(Cl)cc3)cc2OC[C@H](C)N(C(=O)NC(C)C)C[C@H]1C ?
Vaccinia inh: 10; Vaccinia inh Venus: 6

What do the screens show for `C[C@H]1CN([C@@H](C)CO)C(=O)c2cc(NC(=O)CCCN(C)C)ccc2O[C@@H]1CN(C)S(C)(=O)=O`?
Vaccinia inh: 19; Vaccinia inh Venus: 20

What do the screens show for `COc1ccc(NC(=O)Nc2cccc3c2O[C@@H](CN(C)Cc2ccc(C(=O)O)cc2)[C@H](C)CN([C@H](C)CO)C3=O)cc1`?
Vaccinia inh: -1; Vaccinia inh Venus: -1

Results for COc1ccc(NC(=O)N(C)C[C@H]2Oc3ccc(NC(=O)Cc4ccccc4)cc3CC(=O)N([C@H](C)CO)C[C@@H]2C)cc1 ?
Vaccinia inh: -4; Vaccinia inh Venus: 0

How did O=C(C[C@@H]1CC[C@@H](NC(=O)CN2CCOCC2)[C@@H](CO)O1)NCCc1ccncc1 do in these assays?
Vaccinia inh: -4; Vaccinia inh Venus: 10

Results for O=C(C[C@@H]1CC[C@H](NC(=O)Nc2ccc(F)cc2)[C@@H](CO)O1)NCc1ccccn1 ?
Vaccinia inh: 11; Vaccinia inh Venus: 3

Results for C=CCCN(CC#C[C@H]1Oc2ccccc2S(=O)(=O)N2CCC[C@@H]12)S(=O)(=O)c1ccc(C)cc1 ?
Vaccinia inh: 8; Vaccinia inh Venus: 3

How did CC(C)NC(=O)N(C)C[C@@H]1Oc2ccc(NC(=O)CCN3CCOCC3)cc2C(=O)N([C@H](C)CO)C[C@H]1C do in these assays?
Vaccinia inh: 8; Vaccinia inh Venus: 5

How did O=C(N[C@H]1CC[C@@H](CC(=O)N2CCOCC2)O[C@H]1CO)c1cccc(F)c1 do in these assays?
Vaccinia inh: 7; Vaccinia inh Venus: 8

What do the screens show for `CO[C@@H]1CN(C)C(=O)c2cc(NC(=O)Nc3ccc(F)cc3)ccc2OC[C@@H](C)NC[C@@H]1C`?
Vaccinia inh: -4; Vaccinia inh Venus: -11

How did CCNC(=O)C[C@H]1CC[C@H]2[C@@H](COC[C@@H](O)CN2C(=O)Nc2ccc(Cl)c(Cl)c2)O1 do in these assays?
Vaccinia inh: 1; Vaccinia inh Venus: 1

How did COCC(=O)N1[C@@H](CO)[C@@H](c2ccccc2)C12CN(C(=O)Nc1ccccc1F)C2 do in these assays?
Vaccinia inh: -7; Vaccinia inh Venus: -9

What do the screens show for `C[C@H]1CN([C@@H](C)CO)C(=O)c2cccc(NC(=O)c3ccncc3)c2O[C@H]1CN(C)Cc1ccc(-c2ccccc2)cc1`?
Vaccinia inh: -10; Vaccinia inh Venus: -4

Results for COc1ccc(S(=O)(=O)N(C)C[C@@H]2Oc3c(NC(=O)c4cc(C)nn4C)cccc3C(=O)N([C@H](C)CO)C[C@@H]2C)cc1 ?
Vaccinia inh: -4; Vaccinia inh Venus: 7

What do the screens show for `CC(C)NC(=O)Nc1ccc2c(c1)C(=O)N([C@H](C)CO)C[C@@H](C)[C@H](CN(C)C(=O)Nc1cccc3ccccc13)O2`?
Vaccinia inh: 14; Vaccinia inh Venus: 16

Results for CC(C)NC(=O)N(C)C[C@@H]1Oc2ccc(NC(=O)C3CC3)cc2C(=O)N([C@H](C)CO)C[C@@H]1C ?
Vaccinia inh: 9; Vaccinia inh Venus: 12

How did O=C(C[C@@H]1C[C@@H]2c3cc(NC(=O)Nc4ccccc4)ccc3O[C@@H]2[C@H](CO)O1)NCc1ccccc1 do in these assays?
Vaccinia inh: -8; Vaccinia inh Venus: -2

How did COCC(=O)N(C)C[C@H]1Oc2cc(C3=CCCCC3)ccc2S(=O)(=O)N([C@H](C)CO)C[C@@H]1C do in these assays?
Vaccinia inh: -7; Vaccinia inh Venus: 9

Results for C[C@@H]1CCCCO[C@@H](CN(C)C(=O)Nc2ccc(F)cc2)[C@H](C)CN([C@@H](C)CO)C(=O)c2cc(NC(=O)CCC(F)(F)F)ccc2O1 ?
Vaccinia inh: 8; Vaccinia inh Venus: 9

Results for COCC#Cc1ccc2c(c1)O[C@@H](CN(C)Cc1ccccn1)[C@@H](C)CN([C@H](C)CO)S2(=O)=O ?
Vaccinia inh: 8; Vaccinia inh Venus: -1

How did C=CC[C@@]1(C(=O)OC)N=C(c2ccc(OCCCO)cc2)O[C@@H]1c1ccccc1 do in these assays?
Vaccinia inh: -27; Vaccinia inh Venus: -25

What do the screens show for `C[C@@H]1CN([C@H](C)CO)C(=O)c2cc(NC(=O)Nc3ccc(F)cc3)ccc2O[C@@H]1CN(C)Cc1ccncc1`?
Vaccinia inh: 1; Vaccinia inh Venus: 2

How did O=C(C[C@@H]1CC[C@@H](NC(=O)c2ccc3c(c2)OCO3)[C@H](CO)O1)NCc1ccc(Oc2ccccc2)cc1 do in these assays?
Vaccinia inh: -28; Vaccinia inh Venus: -21

Results for COc1ccc(C(=O)Nc2ccc3c(c2)OC[C@@H](C)N(C)C[C@H](C)[C@H](OC)CN(C)C3=O)cc1 ?
Vaccinia inh: 11; Vaccinia inh Venus: 12

The list goes on, starting with the last three of the part before.
What do the screens show for `C[C@@H]1CN([C@H](C)CO)C(=O)c2cc(NC(=O)Nc3ccc(F)cc3)ccc2O[C@@H]1CN(C)Cc1ccncc1`?
Vaccinia inh: 1; Vaccinia inh Venus: 2

How did O=C(C[C@@H]1CC[C@@H](NC(=O)c2ccc3c(c2)OCO3)[C@H](CO)O1)NCc1ccc(Oc2ccccc2)cc1 do in these assays?
Vaccinia inh: -28; Vaccinia inh Venus: -21

Results for COc1ccc(C(=O)Nc2ccc3c(c2)OC[C@@H](C)N(C)C[C@H](C)[C@H](OC)CN(C)C3=O)cc1 ?
Vaccinia inh: 11; Vaccinia inh Venus: 12

How did CCCNC(=O)N1[C@H](C#N)[C@H](c2ccc(-c3ccccc3F)cc2)[C@@H]1CO do in these assays?
Vaccinia inh: inconclusive

Results for COc1ccc(CN(C)C[C@H]2Oc3c(NC(=O)C4CCCCC4)cccc3C(=O)N([C@H](C)CO)C[C@@H]2C)cc1 ?
Vaccinia inh: -28; Vaccinia inh Venus: -22

How did CO[C@H](CN(C)C(=O)c1cnccn1)[C@@H](C)CN([C@@H](C)CO)S(=O)(=O)c1ccc(F)cc1 do in these assays?
Vaccinia inh: 4; Vaccinia inh Venus: 8

Results for CCC(=O)NC[C@@H]1[C@@H](c2ccccc2)[C@H](CO)N1C(=O)C1CCC1 ?
Vaccinia inh: 29; Vaccinia inh Venus: 17

How did CCS(=O)(=O)N1CC(=O)N2[C@H](C1)[C@@H](c1ccc(C#CCC(C)C)cc1)[C@@H]2CO do in these assays?
Vaccinia inh: inconclusive

How did COc1cccc(-c2ccc3c(c2)O[C@H](CN(C)C(=O)C2CC2)[C@H](C)CN([C@H](C)CO)S3(=O)=O)c1 do in these assays?
Vaccinia inh: 11; Vaccinia inh Venus: 10

How did C[C@H](CO)N1C[C@H](C)[C@@H](CN(C)C(=O)NC2CCCCC2)OCCCC[C@H](C)Oc2ccc(NS(=O)(=O)c3ccccc3)cc2C1=O do in these assays?
Vaccinia inh: 20; Vaccinia inh Venus: 10

Results for C[C@@H]1CN([C@@H](C)CO)C(=O)c2cccc(NC(=O)C3CCOCC3)c2O[C@H]1CN(C)Cc1ccc(C(=O)O)cc1 ?
Vaccinia inh: 10; Vaccinia inh Venus: 0

A portion of the library, so the mix of outcomes need not match the whole.
